Assay outcomes: PubChem, Broad Institute
Beta apoptosis – blocks beta cell apoptosis; INS-1E cytokine-induced death, ATP luminescence, 48 h; percent of positive-control rescue, neutral wells zero; protection from apoptosis, % (concentration not given with the values); hit rate 0.8% among 300,000;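 active = all replicates at 75% or more, or half of them and the mean; inconclusive = half reach 75% but not the mean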;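 note: 0% = cytokine-treated negative control wells and 100% = positive control rescue; higher means more ATP so stronger rescue from cytokine killing; wells of about 40 µL received 100 nL stock; the first replicate is given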
MLL AF4-AF9 inh – blocks AF4 peptide binding to human AF9 | P42568 | AlphaScreen, biotin-AF4 peptide binding to FLAG-AF9 | inhibition, % at 10 µM | hit rate 0.47% among 350,000 | AID 651704;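 active = every replicate reaching a set inhibition limit, whatever the replicate mean, cut at about 25% in these data; inconclusive = mean inhibition reaches that limit but some replicates miss it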;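 note: 0% = plate neutral control median and 100% = total signal loss; the record names both 10 and 1 µM as test concentration; the first replicate is given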
Target sequence (P42568 whole entry, looked up): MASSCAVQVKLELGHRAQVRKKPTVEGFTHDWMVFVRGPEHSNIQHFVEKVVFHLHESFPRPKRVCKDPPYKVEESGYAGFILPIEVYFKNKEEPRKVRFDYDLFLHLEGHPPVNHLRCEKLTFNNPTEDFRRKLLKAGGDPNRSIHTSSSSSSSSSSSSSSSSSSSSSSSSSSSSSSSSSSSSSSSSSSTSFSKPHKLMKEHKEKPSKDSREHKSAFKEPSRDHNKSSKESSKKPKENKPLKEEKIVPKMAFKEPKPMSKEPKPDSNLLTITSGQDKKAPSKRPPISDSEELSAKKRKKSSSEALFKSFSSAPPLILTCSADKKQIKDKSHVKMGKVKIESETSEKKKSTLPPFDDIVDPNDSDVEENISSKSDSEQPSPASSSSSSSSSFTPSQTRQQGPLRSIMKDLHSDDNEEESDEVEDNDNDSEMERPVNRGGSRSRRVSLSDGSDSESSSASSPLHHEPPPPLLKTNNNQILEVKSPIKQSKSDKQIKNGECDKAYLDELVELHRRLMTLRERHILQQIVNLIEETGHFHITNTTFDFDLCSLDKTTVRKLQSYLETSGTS
ALR H2O2 inh – inhibitors of human sulfhydryl oxidase ALR; P55789; purified ALR, DTT oxidation, H2O2 HRP-luminol luminescence; inhibition, % (no concentration beside the values); hit rate 3.8% among 290,000;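 active = mean and each replicate at 75% or more; inconclusive = only one of the two met; inactive = neither met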;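 note: stock transfer was 7.5 nL into about 7.5 µL; 0% = neutral wells and 100% = wells with inactivated enzyme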
Target sequence (P55789 whole entry, looked up): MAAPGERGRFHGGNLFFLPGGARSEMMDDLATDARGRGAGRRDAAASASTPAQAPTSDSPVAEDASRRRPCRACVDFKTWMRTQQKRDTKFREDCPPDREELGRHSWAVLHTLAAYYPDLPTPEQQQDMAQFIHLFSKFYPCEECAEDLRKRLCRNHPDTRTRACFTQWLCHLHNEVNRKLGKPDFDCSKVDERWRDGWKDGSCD
FGF22 binding – binders of recombinant human FGF22 by thermal shift | Q9HCT0 | SYPRO orange fluorescence; percent of sucrose octasulfate shift, DMSO zero | calls only at 9.99 µM | hit rate 1.5% among 340,000 | AID 651658;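 active = melting point raised past a set limit in the mean and every replicate; inconclusive = no clear call; three in four hits are not shown here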
Target sequence (Q9HCT0 whole entry, looked up): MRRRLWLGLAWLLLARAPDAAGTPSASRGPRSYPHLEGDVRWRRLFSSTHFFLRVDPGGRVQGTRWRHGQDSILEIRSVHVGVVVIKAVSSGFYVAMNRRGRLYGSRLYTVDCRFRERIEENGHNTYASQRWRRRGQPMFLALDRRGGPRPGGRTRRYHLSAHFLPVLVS
T cruzi repl – T. cruzi replication inhibition | T. cruzi beta-gal in NIH3T3, luminescence, 90 h | inhibition, % (test concentration not listed) | hit rate 1.4% among 300,000 | AID 1885;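 active = mean inhibition across valid replicates above about 55%, limit read from the data; inconclusive = mean below that limit but half or more replicates reach it; inactive = mean below it, under half of replicates reach it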;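 note: signal also drops with host cell toxicity which is not excluded here; 0% = plate median of DMSO wells and 100% = zero luminescence signal; higher percent means less beta-gal luminescence so fewer parasites; stock transfer was 50 nL into about 50 µL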
Ecoli rRNA inh – inhibitors of bacterial rRNA selective over humanized ribosomes | E. coli WT GFP vs humanized-ribosome RFP mutants, fluorescence, 24 h; stronger effect = lower value; DMSO median 0, no signal -100 | GFP signal change (wild-type ribosome), % (test concentration not listed) | hit rate 1.6% among 350,000;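 active = significant combined selectivity score with lowered wild-type GFP, culture density cut under 30%, mutant RFP and density less affected; inactive = any of these conditions unmet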; note: one replicate is shown; some compounds called inactive have numbers as strong as hits
RanGTP-Imp inh – disruptors of Ran-importin-beta complex formation – biochemical, FRET, CFP-Ran, YFP-importin-beta, homogeneous, primary screen; cell-free CFP-Ran/YFP-importin-beta FRET ratio; inhibition, % (no concentration beside the values); hit rate 1.1% among 300,000;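 active = most replicates above 15%; inconclusive = exactly half above 15%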;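 note: 0% = DMSO wells and 100% = Ran loaded with GDP instead of GTP; wells of about 40 µL received 100 nL stock; the first replicate is given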
Calb FLC – C. albicans growth modulation with fluconazole; AID 1979; C. albicans CaCi-2 (fluconazole-resistant clinical isolate) + fluconazole, Alamar Blue growth, 48 h; growth inhibition, % (concentration not given with the values); hit rate 0.57% among 300,000;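 active = most replicates above 75%; inconclusive = exactly half above 75%; inactive = most below 75%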;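 note: all wells also contain fluconazole at 8 µg/ml as a sub-toxic cotreatment; 0% = median of DMSO wells and 100% = median of geldanamycin control wells; wells of about 8 µL received 7.5 nL stock; the first replicate is given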
Ecoli rRNA inh OD600 – also measured in Ecoli rRNA inh; calls as there; OD600 change, %; measured here: OD600 growth;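 optical density of the mix in the first replicate; 0 = DMSO median and -100 = no signal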
Ecoli rRNA inh RFP – recorded beside Ecoli rRNA inh, whose call it bears; RFP signal change, %; measured here: RFP humanized mutant strains;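 first replicate; 0 = DMSO median and -100 = no signal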
* = called active by the depositor; i = inactive; u = inconclusive; x = no result given; + = active, no number; & = joins results of further samples. The list is partial; the hit share may differ from the screen's.

structure,Beta apoptosis,MLL AF4-AF9 inh,ALR H2O2 inh,FGF22 binding,T cruzi repl,Ecoli rRNA inh,Ecoli rRNA inh OD600,Ecoli rRNA inh RFP,RanGTP-Imp inh,Calb FLC
COc1ccc(/C=N/Nc2cn[nH]c(=O)c2Cl)cc1,-4,2.9,16,i,4,-1,3,-1.8,2.0,2
CCOC(=O)c1cnc(-n2nc(C)cc2C)nc1NNc1nc(-c2ccccc2)cc(-c2ccccc2)n1,118*,x,-2,x,48,x,x,x,6.5,-1
CCOc1cc(C)c(Cl)cc1S(=O)(=O)N1CCCC1,-6,x,-1,x,6,x,x,x,5.1,-5
Cc1ccc(NC(=O)CCC(=O)NNC(=O)COc2ccc([N+](=O)[O-])cc2)cc1C,-3,-0.9,-6,i,-6,5,16,-2.0,-1.9,-24
CC1CCCCC1NC(=O)CN1CCC(O)(c2ccc(F)cc2)CC1 (centres undefined),-3,-4.2,-2,i,18,-7,-6,0.2,2.3,1
CSc1c(CC(=O)NCCO)n(C)c2ccccc12,-4,x,33,x,-10,x,x,x,-3.0,0
CCN1CCc2c(OCC(=O)Nc3cccc(C)c3C)cccc2C1=O,-1,-1.0,-77,i,1,1,2,-8.1,-1.1,6
COC(=O)c1ccc2c(=O)n(Cc3ccc4c(c3)OCO4)c(SCC(=O)N3CCCC3)nc2c1,-5,4.4,-5,x,17,20,11,-2.5,u,4
CC1CC(=O)Nc2ccccc2N1C(=O)Nc1ccccc1 (centres undefined),-4,0.7,-2,i,-6,8,-6,3.9,u,-3
CCN1CCN(C(=O)C2CCN(c3nnc(-n4c(C)ccc4C)s3)CC2)CC1,-13,6.4,-3,i,-19,7,2,-2.5,-5.3,-7
CCCCOP(=O)(c1ccc(N(C)C)cc1)C(Nc1ccccc1)c1ccccc1 (centres undefined),-11,10,6,i,17,-3,-12,-0.5,-0.4,-2
O=C(Nc1nnc(-c2ccccc2F)s1)c1cccnc1,-4,-1.0,-1,i,10,6,12,-1.8,-0.6,-1
CCCCCCC1CC(CCC(=O)Nc2ccc([N+](=O)[O-])cc2)C(=O)O1 (centres undefined),1,x,x,x,10,x,x,x,4.6,0
COCC(=O)N1CCC(Oc2ccc(C(=O)NC(C)c3nc(C)sc3C)cc2)CC1 (centres undefined),-3,-1.5,4,i,7,3,9,0.0,-0.3,-11
O=C(Nc1c(C(=O)N2CCN(c3ccccn3)CC2)oc2ccccc12)c1ccc([N+](=O)[O-])cc1,12,-0.4,4,i,47,5,-17,-3.7,2.2,2
Nc1ncc(-c2ccccc2)c(-c2ccc(OCc3ccccc3)cc2O)n1,-1,-3.7,-20,i,32,-1,0,-5.7,2.1,-6
Cc1cccc(C)c1NC(=O)CCCN1CC(C)OC(C)C1 (centres undefined),x,x,4,x,-6,x,x,x,-6.4,0
CCS(=O)(=O)N1CCN(c2ccc([N+](=O)[O-])c(NCC3CCCO3)c2)CC1 (centres undefined),2,1.0,-22,x,0,-21*,-14*,-1.4*,-2.5,32
CC(=O)Nc1ccc(/C(C)=N/Nc2nc(Nc3ccccc3)nc(N3CCOCC3)n2)cc1,-7,5.3,-3,+,67*,-60,-76,-20,x,6
CCNc1nc(NC(C)C)nc(NC(C)(C)C)n1,37,1.3,16,i,51,-13,-20,-2.2,1.3,83*
CCOc1ccccc1C(=O)OCC(=O)Nc1ccc(OC(F)F)cc1,-3,x,x,x,-14,x,x,x,-0.1,2
COc1ccc(-c2c(C)oc3c(CN4CCN(C)CC4)c(O)ccc3c2=O)cc1,0,4.5,2,i,5,7,15,-1.2,3.2,11
CC(=O)Cn1nnc2sc3c(c2c1=O)CCC(C(C)(C)C)C3 (centres undefined),0,15,x,i,10,-54,-74,-17,-1.6,-13
CC1CCN(C(=O)C2CC(c3ccc(F)cc3)=NO2)CC1 (centres undefined),-3,2.8,0,i,8,-10,-2,1.7,3.7,-3
CC(=O)NC(CC(C)C)C(=O)NC(=O)NCc1ccccc1 (centres undefined),-10,x,0,x,6,x,x,x,-2.1,1
COc1ccccc1CC(=O)Nc1ccccc1O,-2,x,89*,x,-9,x,x,x,u,43
CCCN1CCN(CCCNC(=O)C2CCCN(c3nnc(-n4cccc4)s3)C2)CC1 (centres undefined),-2,x,-9,x,9,x,x,x,1.0,-16
Cn1nnc(NC(=O)CSc2nnnn2-c2ccc(F)cc2)n1,-1,x,-13,x,-7,x,x,x,1.0,u
CCCC(=O)Nc1ccc(Sc2ccc([N+](=O)[O-])cc2)cc1,6,x,-6,x,x,x,x,x,u,5
COc1ccccc1-c1nnc(NC(=O)c2ccc(S(=O)(=O)N(C)CC3CCCO3)cc2)o1 (centres undefined),-9,-1.0,9,i,-5,-9,-56,1.5,2.4,28

Some entries already given, limited to FGF22 binding and Beta apoptosis:
molecule	FGF22 binding	Beta apoptosis
O=C(Nc1nnc(-c2ccccc2F)s1)c1cccnc1	i	-4
CCCCCCC1CC(CCC(=O)Nc2ccc([N+](=O)[O-])cc2)C(=O)O1 (centres undefined)	x	1

Single values from the list.
Result for `CCOc1ccccc1C(=O)OCC(=O)Nc1ccc(OC(F)F)cc1` in Beta apoptosis: -3
Result for `COc1ccccc1CC(=O)Nc1ccccc1O` in ALR H2O2 inh: 89*
Result for `Cc1cccc(C)c1NC(=O)CCCN1CC(C)OC(C)C1` (centres undefined) in T cruzi repl: -6
Result for `CCOC(=O)c1cnc(-n2nc(C)cc2C)nc1NNc1nc(-c2ccccc2)cc(-c2ccccc2)n1` in T cruzi repl: 48
Result for `COc1ccccc1-c1nnc(NC(=O)c2ccc(S(=O)(=O)N(C)CC3CCCO3)cc2)o1` (centres undefined) in MLL AF4-AF9 inh: -1.0

Following part:
structure,Beta apoptosis,MLL AF4-AF9 inh,ALR H2O2 inh,FGF22 binding,T cruzi repl,Ecoli rRNA inh,Ecoli rRNA inh OD600,Ecoli rRNA inh RFP,RanGTP-Imp inh,Calb FLC
Cc1c(CN2CCCC(C(=O)c3cccc(Cl)c3)C2)c(=O)n(-c2ccccc2)n1C (centres undefined),2,1.9,-24,i,5,13,18,0.4,3.1,-18
CO/N=C/C(=N\Nc1ccc(OC)cc1)C(=O)c1ccc(F)cc1,x,2.1,-9,i,1,0,0,-6.0,-1.4,5
O=C(Nc1ccc([N+](=O)[O-])cc1)C1CC12CCC2 (centres undefined),1,0.4,29,i,-7,-1,-2,2.7,u,-22
CC1(C)C2CCC1(C(=O)O)c1nc3ccccc3nc12 (centres undefined),-3,0.0,-12,i,-1,9,10,2.1,0.0,-7
CCn1c(SCC(=O)Nc2ccccc2C)nnc1-c1ccccc1O,1,x,3,x,2,x,x,x,u,0
Cc1nc2nc[nH]n2c(=O)c1NC(=O)c1cccc(OCC(C)C)c1,-4,x,58,x,-13,x,x,x,5.6,-2
Cc1cc(NCCO)c2ccccc2n1,-9,x,-4,x,-1,x,x,x,-1.2,1
O=C(NCCN1C(=O)S/C(=C\c2cccs2)C1=O)c1ccc(=O)[nH]c1,-6,x,-3,x,9,x,x,x,-1.0,-5
COc1ccc(OC)c(NC(=O)CSc2ccc3ccccc3c2)c1,0,x,-12,x,-3,x,x,x,-2.3,-1
O=C(CSc1nnc(Cn2nnc3ccccc32)o1)Nc1cccc(Cl)c1,x,x,20,x,-13,x,x,x,-2.8,11
CCC(=O)Nc1cc(C(=O)OC(C(=O)c2ccc(C)c(C)c2)c2ccccc2)ccc1C (centres undefined),-2,x,x,x,41,x,x,x,0.9,-2
COC(=O)CCC/C=C1/SCC(NC(=O)c2ccccc2)/C1=N/O (centres undefined),-2,-1.2,7,i,6,10,9,0.7,0.8,-3
Cc1ccccc1N1C(=O)C2ON(c3ccccc3)C(c3ccco3)C2C1=O (centres undefined),2,-1.1,-2,i,-18,2,12,8.8,0.5,-5
CCc1ccc(C(=O)NNC(=O)OC)cc1,-4,-5.9,x,i,-14,15,16,-1.7,6.2,-11
Cc1ccccc1Nc1nnc(SCC(=O)NCC2CCCO2)s1 (centres undefined),0,-1.1,x,i,x,5,3,0.3,x,x
O=c1c2ccccc2nc2c3ccccc3c(NCCN3CCOCC3)nn12,46,x,-3,x,47,x,x,x,-5.6,-5
O=C(Nc1ccccc1)C1=C[C@@H](c2ccccc2)C[C@@H](OCc2ccc(CO)cc2)O1,5,-3.9&0.5,-4,i,16,-23,-23,-18,-0.7,-6
C[C@H]([C@H](O)c1ccccc1)N(C)C(=O)CN,-1,-2.0,0,i,5,1,10,-5.7,-1.9,-2
CCCn1c(SCC(=O)Nc2cc(S(=O)(=O)N3CCOCC3)ccc2Cl)n[nH]c1=O,0,-4.5,0,i,-4,-13,-32,-3.0,1.1,-3
Cc1nn2c(-c3ccco3)nnc2c2ccccc12,13,x,10,x,9,x,x,x,1.6,21
COc1ccccc1CC(=O)Nc1ccc(S(=O)(=O)N2CC(C)CC(C)C2)cc1 (centres undefined),-7,1.5,-3,i,x,-8,-16,-2.6,x,x
CC1CCC2(CC1)N=C(N)Nc1nc3ccccc3n12 (centres undefined),x,x,-13,x,9,x,x,x,1.8,-8
S=C(NCCc1ccccc1)Nc1ccccc1N1CCOCC1,-8,1.2,-4,i,4,-10,-9,-2.8,-0.8,-6
COc1ccc(CNCc2cccc(Oc3ccccc3)c2)cc1,1,1.3,-17,i,-9,-25*,-16*,-0.7*,-1.5,-34
Cc1cc(N)nc(SCC(=O)N2C(C)CCCC2C)n1 (centres undefined),-12,-6.0,-2,i,-5,0,1,0.6,-2.4,9
COc1ccc(CNC(=O)c2ccc(Cn3cc(Br)cn3)o2)cc1,-8,-1.4,0,i,4,-12,-12,-3.6,-2.8,-12
Cn1c(CSc2nc3ccccc3s2)n[nH]c1=S,0,x,98*,x,3,x,x,x,2.0,7
Cc1cccc(Nc2n[nH]c(=S)s2)c1C,0,1.3,99*,i,-5,-2,-1,-2.6,-1.2,4
Cc1ccc(C(=O)ONC(=O)c2ccc(Cl)cc2)cc1[N+](=O)[O-],-3,-1.0,55,i,-7,-3,-12,-8.1,5.2,-6
Cc1nc(N2CCCCC2)sc1C=O,-2,-2.1,8,i,-4,2,-3,-1.4,-1.5,-12
COc1ccc(N2CCN(CC(=O)N3CCC(C)CC3)CC2)cc1,-5,x,u,x,-15,x,x,x,1.7,3
CCn1c2ccccc2c2c3ncc4cccn4c3ccc21,-5,-8.8,-8,i,6,-6,-11,1.9,68*,19
Cc1cc(NC(=O)c2ccco2)ccc1-n1cnnn1,-2,x,x,x,-18,x,x,x,0.0,-5
